Screening data (PubChem)
RE007 growth inh = qHTS Assay for Inhibitors of the HIV-1 protein Vpr | S. pombe RE007 Vpr strain, BacTiter-Glo ATP luminescence, 24 h; control for the full effect not named in the record | Potency, µM (highest dose often 92.2 µM), for inactives: top-dose activity change, negative = less growth | 0.21% of 360,000 active | AID 651644, 2012; active = well fitted falling curve with a large enough effect; inconclusive = small, poorly fitted or top-dose-only effect; inactive = no such curve, though single readings can be large or run the other way;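 note: % is set by controls: 0 for no effect and ±100 for the full control effect; nearly all actives have a fitted effect of over 50% in size; the assay follows cell death caused by Vpr and the record does not say whether a fall means rescue or toxicity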
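Fission yeast strain RE007, carrying one chromosomally integrated HIV-1 vpr copy, was seeded at OD 0.01 in PMG+AL medium with 23 nL pinned compound. After 24 h at 30 °C and 99% humidity, viability was read by BacTiter-Glo luminescence.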
LASV entry inh = qHTS for Inhibitors of binding or entry into cells for Lassa Virus; Lassa virus pseudotype entry inhibition, cell reporter; control for the full effect not named in the record; 1.2% of 300,000 active; Potency, µM (highest dose often 37.9 µM), for inactives: at the highest dose activity change, negative = inhibition, actives largely listed as inhibitors; active means well fitted inhibition curve with a large enough effect; inconclusive means small, poorly fitted or top-dose-only effect, or effect the other way; inactive means flat fitted curve, though single readings scatter; tested in HEK293 cells; note: % is set by controls: 0 for no effect and ±100 for the full control effect; nearly all actives have a fitted effect of over 50% in size; luciferase read-out
Cruzain Triton = qHTS Assay for Promiscuous and Specific Inhibitors of Cruzain (with detergent). Cruzipain (Trypanosoma cruzi), P25779. Potency, µM, for inactives: max response, negative = inhibition, most hits filed as inhibitors. purified cruzain, Z-FR-AMC fluorescence, 0.01% Triton. 0.43% of 200,000 active;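 note: plate controls were neutral wells for no effect and buffer without enzyme for full effect; nearly all actives have a fitted effect of over 40% in size; top concentration of the series not given in the record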
Target sequence (P25779 123-467 limits assumed): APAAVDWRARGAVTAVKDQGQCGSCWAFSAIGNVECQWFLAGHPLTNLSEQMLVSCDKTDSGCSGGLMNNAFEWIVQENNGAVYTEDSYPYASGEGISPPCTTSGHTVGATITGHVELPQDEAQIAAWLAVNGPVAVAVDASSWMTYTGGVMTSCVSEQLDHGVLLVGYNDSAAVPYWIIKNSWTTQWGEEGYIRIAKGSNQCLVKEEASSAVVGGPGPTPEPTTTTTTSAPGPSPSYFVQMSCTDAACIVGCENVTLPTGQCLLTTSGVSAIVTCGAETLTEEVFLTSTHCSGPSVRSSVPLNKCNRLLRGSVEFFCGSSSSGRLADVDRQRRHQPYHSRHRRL
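Cruzain (1.5 nM) preincubated 15 min at RT with compound in 100 mM sodium acetate pH 5.5, 5 mM DTT, 0.01% Triton X-100. Reaction started with 2 uM Z-FR-AMC; AMC fluorescence (ex 360/em 450 nm) change over 60 s gave rate.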
Cruzain noTriton = qHTS Assay for Promiscuous and Specific Inhibitors of Cruzain (without detergent). Cruzipain (Trypanosoma cruzi), P25779. purified cruzain, Z-FR-AMC fluorescence, no detergent. Potency, µM, for the others: max response, negative = inhibition, usual class: inhibitors. 2.3% of 200,000 active. AID 1476, 2009;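 note: plate controls were enzyme without inhibitor for no effect and buffer without enzyme for full effect; nearly all actives have a fitted effect of over 40% in size; top concentration of the series not given in the record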
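Detergent-free condition (0.00005% Triton X-100) in acetate buffer pH 5.5 with DTT. 1.5 nM enzyme and compound were pre-mixed 15 min, then 2 uM Z-FR-AMC substrate added; reaction progress from fluorescence change between first and third reads (60 s).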
2A StopGo = High Throughput Screening for Foot and Mouth Disease Virus Antivirals. AID 1159524, 2015. 1.2% of 410,000 active. human cells with a luciferase reporter of 2A StopGo recoding; control for the full effect not named in the record. Potency, µM (highest dose often 57.9 µM), for inactives: at the highest dose signal change, negative = less light; active = well fitted falling curve with a large enough effect; inconclusive = small, poorly fitted or top-dose-only effect; inactive = no such curve, though single readings can be large or run the other way; tested in HEK293T cells; note: % is set by controls: 0 for no effect and ±100 for the full control effect; nearly all actives have a fitted effect of over 45% in size; luciferase light after 4 h
SARS PLP yeast = qHTS of Yeast-based Assay for SARS-CoV PLP; S. cerevisiae expressing SARS-CoV PLpro, growth rescue; control for the full effect not named in the record; 0.19% of 330,000 active; Potency, µM (titrated, usually from 32.9 µM), inactives show at the highest dose activity, positive = growth rescue; active means well fitted rising curve with a large enough effect; inconclusive means small, poorly fitted or top-dose-only effect; inactive means no such curve, though single readings can be large or run the other way; note: 0% is about no effect; nearly all actives have a fitted effect of over 55% in size; growth read by luminescence after 48 h
Marburg entry inh = qHTS for inhibitors of binding or entry into cells for Marburg Virus; Potency, µM (titrated, usually from 37.8 µM), without a hit: at the highest dose activity change, negative = inhibition, actives largely listed as inhibitors; Marburg virus pseudotyped entry inhibition, cell reporter; control for the full effect not named in the record; about a third of the inactives were read at about 46 µM; AID 540276, 2011; 1.8% of 300,000 active; active = well fitted inhibition curve with a large enough effect; inconclusive = small, poorly fitted or top-dose-only effect, or effect the other way; inactive = flat fitted curve, though single readings scatter; tested in HEK293 cells; about a fifth of its hits are not listed in these tables; note: % is set by controls: 0 for no effect and ±100 for the full control effect; luciferase read-out
NS1 inh = qHTS Assay for Inhibitors of Influenza NS1 Protein Function; S. cerevisiae slowed by influenza A NS1, growth recovery by OD600; AID 2326, 2010; Potency, µM (titrated, usually from 46.1 µM), for the others: top-dose activity, positive = more growth; 0.4% of 270,000 active; active means well fitted rising curve with a large enough effect; inconclusive means small, poorly fitted or top-dose-only effect; inactive means no such curve, though single readings can be large or run the other way; note: nearly all actives have a fitted effect of over 50% in size
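A cell-based growth assay was used: compounds that relieve NS1-induced slow growth of budding yeast raise OD600. Assay medium was yeast nitrogen base with ammonium sulphate and -URA supplement, pH 6.0, with 2% galactose.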
Active calls of the source: *; ? = inconclusive; nt = no result given; [ ] = another dose, or the depositor's remark. Unless noted, calls come from the whole dose curve; as a rule, active = well fitted curve in the direction sought with a large enough effect; inconclusive = small, poorly fitted or top-dose-only effect, or another doubt; inactive = no such curve, though single readings can be large; an effect the other way counts as inactive or inconclusive. Potency is the fitted concentration of half-maximal effect.

Short keys – A = RE007 growth inh; B = LASV entry inh; C = Cruzain Triton; D = Cruzain noTriton; E = 2A StopGo; F = SARS PLP yeast; G = Marburg entry inh; H = NS1 inh
CC1(C)Cc2c(sc3c2C(=O)NC(c2cccnc2)N3)CO1 (centres undefined)
  A: 11%	B: 12%	C: 2.2%	D: 10%	E: 16%	F: 1%	G: 24%	H: 8%

Cc1cc(S(=O)(=O)Nc2cc3c(cc2N2CCOCC2)n(C)c(=O)n3C)ccc1F
  A: nt	B: ?	C: -0.2%	D: ?	E: -5%	F: nt	G: -7%[46.1 µM]	H: nt

COc1ccccc1CNC(=O)CCCc1nnc2n(C)c(=O)c3sccc3n12
  A: 3%	B: nt	C: nt	D: nt	E: -20%	F: 2%	G: nt	H: 6%

Cc1cccc(NC(c2ccc(C)s2)c2ccc3ccc(C)nc3c2O)n1 (centres undefined)
  A: ?	B: 11%	C: -3.0%	D: -14%	E: ?	F: -87%	G: 2%	H: -5%

CN(C)c1ccc(/C=C/c2ccc3c4ccccc4ccc3[n+]2-c2ccccc2)cc1
  A: 28µM*	B: 11µM*	C: nt	D: nt	E: 13µM*	F: -17%	G: ?	H: nt

Cc1ccc(S(=O)(=O)N2CCC(C(=O)NCc3ccncc3)CC2)cc1
  A: -9%	B: -6%	C: -0.5%	D: 0%	E: 6%	F: -10%	G: -15%	H: 0%

CC(=O)Nc1ccc(OCc2cccc([N+](=O)[O-])c2)cc1
  A: 17%	B: ?	C: nt	D: nt	E: 33%[activator]	F: 1%	G: 10%[46.1 µM]	H: -2%

COc1ccc(F)cc1S(=O)(=O)N1CCC2(CC1)OCCN2S(=O)(=O)c1ccccc1
  A: 3%	B: -10%[46.1 µM]	C: nt	D: nt	E: 18%	F: -1%	G: 4%	H: nt

CCC(CC)C(=O)OCC(=O)Nc1cc(OC)c([N+](=O)[O-])cc1C
  A: -22%	B: 2%	C: -3.6%	D: -3%	E: 0%	F: 8%	G: 14%	H: -18%

CCCCOc1ccc(CC(=O)NCC(=O)O)cc1
  A: -2%	B: ?	C: -0.5%	D: -8%	E: -9%	F: -6%	G: 4%	H: 11%

CCOC(=O)c1cnc(-c2ccccc2O)nc1Cl
  A: -5%	B: -5%	C: nt	D: nt	E: 27%	F: 0%	G: ?	H: nt

Cn1cnc(S(=O)(=O)N2CCC(C(=O)N3CCN(c4ccccc4F)CC3)CC2)c1
  A: nt	B: ?	C: 0.1%	D: -2%	E: -20%	F: nt	G: nt	H: nt

COc1ccc(C(=O)Nc2ccc(NC(=O)c3cccc(OC)c3)cn2)cc1
  A: -1%	B: -7%[46.1 µM]	C: nt	D: nt	E: -18%	F: -1%	G: ?	H: -5%

CNc1nc(SCc2ccccc2Cl)nc2c1CCCC2
  A: ?	B: ?	C: -9.2%	D: 1%	E: -29%	F: -33%	G: -22%	H: -47%

Cc1cccc(Oc2ncnc3onc(C)c23)c1C
  A: 9%	B: -9%	C: 4.2%	D: 9%	E: ?	F: -19%	G: 18%[46.1 µM]	H: -12%

COCCn1c(-c2ccc(SC)cc2)nc2c1c(=O)[nH]c(=O)n2CC(C)C
  A: 5%	B: ?	C: nt	D: nt	E: 24%	F: 1%	G: -10%[46.1 µM]	H: 6%

COC(=O)c1ccc(/C=C/C(=O)OCC(=O)NCc2cccs2)cc1
  A: 4%	B: 26%	C: nt	D: nt	E: 46%[activator]	F: 6%	G: ?	H: nt

CCN(CC(=O)NCc1ccc(Cl)cc1)C(=O)CSCC(=O)Nc1ccc(C)cc1
  A: 25%	B: -16%[46.1 µM]	C: nt	D: nt	E: -10%	F: -4%	G: ?	H: nt

Cc1ccc(-c2nnn3c2nc(NC(C)C)c2ccccc23)cc1
  A: -7%	B: nt	C: nt	D: nt	E: -10%	F: 0%	G: nt	H: -8%

COc1ccc(S(=O)(=O)N2CCCC2C(=O)Nc2nc3c(s2)CCCC3)cc1 (centres undefined)
  A: -9%	B: 0%	C: -4.2%	D: -10%	E: ?	F: -3%	G: ?	H: 3%

CC1CC1C(=O)Nc1nc(-c2ccccc2)cs1 (centres undefined)
  A: ?	B: ?	C: -2.6%	D: -4%	E: -3%	F: -27%	G: -22%	H: -113%

CCc1cccc(C)c1Nc1c(-c2cccs2)nc2nc(C)cc(C)n12
  A: nt	B: -1%[46.1 µM]	C: -6.6%	D: 8%	E: -15%	F: nt	G: -8%[46.1 µM]	H: nt

Cc1ccc(-c2ccc(SCC(=O)N3CCc4ccccc43)nn2)cc1
  A: nt	B: nt	C: -2.4%	D: -23%	E: nt	F: -5%	G: nt	H: 4%

CC(=NCC1CCCO1)c1c(O)n(-c2ccc(C)cc2)c(=O)[nH]c1=O (centres undefined)
  A: 8%	B: -19%	C: -3.7%	D: 7%	E: 21%	F: -12%	G: -17%	H: 0%

CN(C)CCCN(C(=O)COc1ccccc1)c1nc2cc3c(cc2s1)OCCO3
  A: 8%	B: nt	C: nt	D: nt	E: 28%	F: -2%	G: nt	H: -20%

CCOCC(=O)Nc1c(C(=O)Nc2ccc3c(c2)OCCO3)oc2ccccc12
  A: 9%	B: ?	C: nt	D: nt	E: 24%	F: -1%	G: ?	H: nt

CCN(N)C(=S)Nc1ccc(F)cc1
  A: -27%	B: -16%	C: nt	D: nt	E: 44%[activator]	F: -2%	G: -11%[46.1 µM]	H: nt

Cc1nc2c(C(=O)N(C)Cc3ccccc3)c[nH]n2c(=O)c1Cc1ccc(Cl)cc1
  A: nt	B: -30%[46.1 µM]	C: 1.7%	D: -3%	E: ?	F: nt	G: ?	H: nt

CC(C)/C=C1\CCCCC1N(C)C(=O)NC(C)C (centres undefined)
  A: 1%	B: 1%	C: 0.9%	D: -9%	E: -13%	F: 1%	G: -3%	H: -12%

Cc1cccc2c1-c1sc(C(=O)NCc3ccccc3Cl)cc1CO2
  A: nt	B: nt	C: -22%	D: ?	E: 40%[activator]	F: nt	G: ?	H: nt

Cc1cc(Cl)ccc1NC(=O)CSc1nc2c(c(=O)[nH]1)CCC2
  A: nt	B: 3%[46.1 µM]	C: -5.6%	D: -6%	E: -17%	F: nt	G: 0%[46.1 µM]	H: nt

Cc1ccc(S(=O)(=O)CC(=O)Nc2ccc(S(=O)(=O)Nc3onc(C)c3C)cc2)cc1
  A: 11%	B: 5%	C: -0.6%	D: -2%	E: nt	F: -7%	G: 4%	H: -10%

CC(C)[C@H]1CN(C)CCN1Cc1cn(C)nc1-c1cccc(Cl)c1
  A: 0%	B: nt	C: nt	D: nt	E: -13%	F: -2%	G: nt	H: 3%

CCc1ccccc1NC(=O)c1ccc(F)c(S(=O)(=O)N2CCN(c3cccc(Cl)c3)CC2)c1
  A: nt	B: 20%[46.1 µM]	C: -0.3%	D: 7%	E: ?	F: nt	G: nt	H: nt

Cc1ccnc(NC(c2ccccc2F)c2ccc3cccnc3c2O)c1 (centres undefined)
  A: nt	B: ?	C: ?	D: ?	E: -10%	F: nt	G: ?	H: nt

COc1ccc(CNCc2cc(C)c(OC)cc2C)c(OC)c1
  A: -4%	B: nt	C: nt	D: nt	E: -12%	F: 0%	G: nt	H: 18%

CN(C)CCN=Cc1c(O)n(-c2ccc(S(=O)(=O)N3CCOCC3)cc2)c(=O)c2ccccc12
  A: -19%	B: 6%	C: nt	D: nt	E: -22%	F: -1%	G: 12%[46.1 µM]	H: nt

O=c1c(Cl)c(NCc2ccc(F)cc2)cnn1C12CC3CC(CC(C3)C1)C2
  A: 0%	B: -12%	C: -6.6%	D: 8%	E: -35%	F: -22%	G: 1%	H: 1%

O=S(=O)([N-]c1nc2ccccc2nc1-[n+]1ccc(-c2ccncc2)cc1)c1ccccc1
  A: 7%	B: 3%	C: nt	D: nt	E: 80%[activator]	F: 0%	G: 4%[46.1 µM]	H: nt

NC(=O)C1CCN(C(c2ccccc2)c2nnnn2C2CCCC2)CC1 (centres undefined)
  A: 7%	B: -3%	C: 1.9%	D: -3%	E: 25%	F: 5%	G: 10%	H: 6%

COC(=O)C1CSc2[nH]c(=O)sc2C1c1ccc(OC)c(OC)c1 (centres undefined)
  A: -1%	B: 2%	C: -11%	D: -5%	E: -3%	F: 5%	G: 3%	H: 1%

Cc1ccc(NC(=O)COC(=O)C2CCN(c3ccc(C(F)(F)F)cn3)CC2)cc1C
  A: 18%	B: 3%	C: nt	D: nt	E: -4%	F: -11%	G: -8%	H: nt

CC1CCCC(NC(=O)CCCn2ncn3c(cc4occc43)c2=O)C1C (centres undefined)
  A: -10%	B: ?	C: nt	D: nt	E: 24%	F: -1%	G: 17%[46.1 µM]	H: 2%

CCOc1ccccc1NS(=O)(=O)c1ccc2c(c1)CC(C)N2C(=O)C1CC1 (centres undefined)
  A: nt	B: -4%[46.1 µM]	C: -2.1%	D: 2%	E: ?	F: nt	G: nt	H: nt

Cc1nn(-c2ccccc2)c(-n2cccc2)c1C(=O)N1CCN(c2ccccc2)CC1
  A: nt	B: 20%[46.1 µM]	C: -0.4%	D: 6%	E: -30%	F: nt	G: 11%[46.1 µM]	H: nt

CC(=O)Nc1ccc(S(=O)(=O)N2CCN(C(=O)c3ccccc3F)CC2)cc1
  A: 1%	B: -23%	C: -2.1%	D: -8%	E: ?	F: 20%	G: 4%	H: -7%

Profiles as entered above.
Record of Cc1cccc2c1-c1sc(C(=O)NCc3ccccc3Cl)cc1CO2 → RE007 growth inh = nt; LASV entry inh = nt; Cruzain Triton = -22%; Cruzain noTriton = ?; 2A StopGo = 40%[activator]; SARS PLP yeast = nt; Marburg entry inh = ?; NS1 inh = nt
Record of Cc1cc(Cl)ccc1NC(=O)CSc1nc2c(c(=O)[nH]1)CCC2 → RE007 growth inh = nt; LASV entry inh = 3%[46.1 µM]; Cruzain Triton = -5.6%; Cruzain noTriton = -6%; 2A StopGo = -17%; SARS PLP yeast = nt; Marburg entry inh = 0%[46.1 µM]; NS1 inh = nt
